High-throughput results (PubChem)
Vaccinia mCherry: qHTS for Stage-Specific Inhibitors of Vaccinia Orthopoxvirus: mCherry Reporter Primary qHTS; Vaccinia virus mCherry reporter infection, fluorescence; about a quarter of the inactives have no number; Potency, µM (series often up to 36.5 µM), for the others: at the highest dose activity change, negative = inhibition, actives largely listed as inhibitors; 310,000 compounds, 0.63% hits; AID 720579, 2013; active = well fitted inhibition curve with a large enough effect; inconclusive = small, poorly fitted or top-dose-only effect; inactive = no such curve, though single readings can be large or run the other way; tested in A549 cells; also: nearly all actives have a fitted effect of over 35% in size; inactives centre near -10
Vaccinia Venus: qHTS for Stage-Specific Inhibitors of Vaccinia Orthopoxvirus: Venus Reporter Primary qHTS. Vaccinia virus Venus reporter expression, fluorescence. Potency, µM (doses to about 36.5 µM), inactives show at the top dose activity change, negative = inhibition, usual class: inhibitors. 330,000 compounds, 0.46% hits. AID 720580, 2013; active means well fitted inhibition curve with a large enough effect; inconclusive means small, poorly fitted or top-dose-only effect; inactive means no such curve, though single readings can be large or run the other way; tested in A549 cells; also: nearly all actives have a fitted effect of over 30% in size; inactives centre near -10
Active calls of the source: *; i = inactive; ? = inconclusive; · = not tested or not shown; & = joins results of further samples; [ ] = dose if it differs, or a comment. % is scaled to controls: 0 for no effect and ±100 for the full control effect; potency is read from the fitted curve at half-maximal effect.

canonical_smiles | Vaccinia mCherry | Vaccinia Venus
N#Cc1ccccc1COC(=O)c1cc(S(=O)(=O)N2CCOCC2)ccc1F | i | -19%
CN(CC(=O)N1CCCCCC1)S(=O)(=O)c1ccccc1 | i | 6%
Cc1ccc(C(C)C)cc1OCC(=O)NCCCn1ccnc1 | -25% | -8%
CCOc1cc(S(=O)(=O)NCc2ccncc2)c(C)cc1C | -3% | -14%
O=C(O)c1ccccc1NN=C1CCCCC1 | -6% | -1%
O=C(/C=C/c1ccco1)Nc1ccc(S(=O)(=O)N2CCOCC2)cc1 | -20% | -10%
Cn1cccc1C(C(=O)NC1CCCCC1)N(C(=O)Cc1cccs1)C1CC1 (stereo not given) | -10% | -11%
COc1ccc(CCC(=O)NCc2nc3cccnc3n2Cc2ccccc2)cc1 | -11% | -10%
Cc1cc(=O)oc2ccc(OC(=O)CC(C)C)cc12 | -2% | 1%
Cc1ccc(C(=O)c2cc(C)sc2NC(=O)CN2CCN(C(=O)c3ccco3)CC2)cc1 | 11µM* | ?
CCN(CC)S(=O)(=O)c1ccc(N2CCOCC2)c(NC(=O)Cc2cccc3ccccc23)c1 | -11% | -16%
CCN1CCN(C(=O)NC2CC(=O)N(c3ccc(OC)cc3)C2)CC1 (stereo not given) | i | 10%
COc1ccccc1NC(=S)Nc1cccc(F)c1 | -3% | -21%
CCOc1ccc(OCC(O)CN2CCN(S(=O)(=O)c3cccc(C(F)(F)F)c3)CC2)cc1 (stereo not given) | i | -18%
CC(=O)c1ccc(OCCCC(=O)N(CCC2=CCCCC2)c2c(N)n(Cc3ccccc3)c(=O)[nH]c2=O)cc1 | -28% | -16%
COCCCN(C(=O)Cc1csc(-c2cccc(Cl)c2)n1)c1c(N)n(Cc2ccccc2)c(=O)[nH]c1=O | -21% | -25%
CC(=O)c1cnc(Nc2cccc(C)c2)s1 | ? | -22%
C=CCn1c(SCC(=O)Nc2cc(C)on2)nc2ccccc21 | i | -6%
COCCOc1nc2c(c(=O)n(C)c(=O)n2C)n1Cc1cccc(OC)c1 | · | -27%
COc1ccc([C@H]2C[C@H](n3cc(COC(=O)c4ccccc4)nn3)[C@@H](O)CN2Cc2cccs2)cc1 | -17% | -21%
CCN(CC)c1cc(NCCO)c([N+](=O)[O-])c2nonc12 | -3% | -15%
COc1ccc(NC(=O)C2(C)Cc3c(-c4cccc(NC(C)=O)c4)ccnc3O2)cc1 (stereo not given) | ? | ?
CC1CCCCC1=NNC(=O)c1ccccc1 (stereo not given) | i | -5%
COc1ccc(-c2cc(C(=O)N3CCCc4ccccc43)no2)cc1 | -20% | -8%
Clc1ccc(Cl)c(OCCCCN2CCNCC2)c1 | -7% | -20%
CNC(=O)CN1C(=O)c2cccnc2Sc2ccccc21 | -9% | -12%
COc1ccc(C(C)=O)cc1CC(C(=O)c1ccc(Br)cc1)N(C)C (stereo not given) | 5% | -11%
CS(=O)c1ccccc1-c1nc(-c2ccc(Cl)cc2)no1 (stereo not given) | -6% | -7%
Cc1ccc(S(=O)(=O)N2CCOCC2)cc1NC(=O)COC(=O)c1ccc(Cl)s1 | -9% | -3%
COc1cccc(OCc2cc(C(=O)N3CCC(c4ccncc4)CC3)no2)c1 | -25% | -12%
CC(=O)n1cc(-c2ccncc2)c2ccccc21 | i | -17%
CN1CCN(S(=O)(=O)c2ccc3ccccc3c2)CC1 | 5% | 6%
Cc1c(Cl)c(C(=O)N2CCCC2)nn1C | i | -6%
COc1ccc(-n2c(C)cc(C(=O)C[N+]34CCN(CC3)CC4)c2C)cc1 | i | -7%
COc1ccc(-n2c3c(cc(C(=O)NCC(=O)c4ccccc4)c2=O)C(=O)CC(C)(C)C3)cc1 | -11% | -15%
CCOC(=O)c1c(NC(=O)CCCOc2ccc(C(C)(C)C)cc2)sc2c1CCC2 | -6% | -8%
CCCCN(C)C(=O)C1CCN(C/C(C)=C/c2ccccc2)CC1 | -8% | -22%
C=CCn1c(CCc2ccccc2)nnc1SCC(=O)OC | i | -11%
CC1(C)Cc2c(sc(NC(=O)c3ccc(S(=O)(=O)N4CCCC4)cc3)c2C#N)C(C)(C)N1 | -17% | -11%
O=C(COc1ccc(NC(=O)c2ccccc2[N+](=O)[O-])cc1)c1ccc(F)cc1 | -8% | -6%
O=C(c1cccc(Cl)c1)N1CCC(=O)N(C(COCc2ccccc2)Cc2ccccc2)CC1 (stereo not given) | -21% | -26%
CC(CCc1ccccc1)NC(=O)CSc1nnnn1C (stereo not given) | -13% | -7%
COc1cc(OC)cc(-c2oc3cccnc3c2C#CCCO)c1 | ? | ?
CCOc1ccccc1NC(=O)C1=C(C)NC(=S)NC1c1cccs1 (stereo not given) | i | -4%
C[C@H](NC(N)=O)C(=O)OCC(=O)NCc1cccs1 | i | -5%
COC(=O)c1ccccc1-c1cc(C)cc2c1OC(CNC(=O)c1cc(C)on1)C2 (stereo not given) | -17% | 9%
CC(OC(=O)/C=C/c1ccc2ccccc2n1)C(=O)NCc1ccccc1 (stereo not given) | ? | ?
CCOc1ccc(Nc2ccc(S(=O)(=O)N3CCOCC3)cc2[N+](=O)[O-])cc1 | -16% | -14%
O=C(NC1CCCC1)c1ccc(COCC(F)(F)C(F)F)o1 | -5% | -7%
O=C(C1CCN(S(=O)(=O)c2ccc(Br)s2)CC1)N1CCN(c2ccc(F)cc2)CC1 | ? | -16%
OCC1OC(O)CC(O)C1O (stereo not given) | 4% | 7%
Cc1c(NS(=O)(=O)c2ccc(Cl)c(C(=O)OC(C)C(=O)NCc3ccco3)c2)c(=O)n(-c2ccccc2)n1C (stereo not given) | -8% | -10%
CN(C)CCCN1c2ccc(O)cc2Sc2ccc(Cl)cc21 | -15% | ?
CCCCCOc1ccc(C(=O)C(c2ccccc2)N2CCOCC2)cc1 (stereo not given) | -26% | -20%
C=CCN1c2ccc(Br)cc2C(=O)CS1(=O)=O | -1% | -8%&-9%
COc1cc(NC(=O)Cn2c(=O)n(CC3CCCO3)c(=O)c3cc(OC)c(OC)cc32)cc(OC)c1 (stereo not given) | 1%&-9% | -11%&-5%
Cc1ccc(S(=O)(=O)N2C[C@@H]3[C@H]4CC[C@H](C4)[C@@H]3[C@@H](C)[C@@H]2c2ccco2)cc1 | ? | -13%
O=S(=O)(Nc1cccc(-c2cn3cccnc3n2)c1)c1ccc(Cl)cc1 | -15% | -20%
CCCOc1ccc(/C=C/C(=O)Nc2ccc([N+](=O)[O-])cc2C)cc1 | -27% | -23%
COc1cc(C(=O)NC2CCCCC2)ccc1OCc1ccc(Cl)cc1Cl | i | -3%

Compounds listed so far with an NH in an aromatic ring (2):
canonical_smiles | Vaccinia mCherry | Vaccinia Venus
CC(=O)c1ccc(OCCCC(=O)N(CCC2=CCCCC2)c2c(N)n(Cc3ccccc3)c(=O)[nH]c2=O)cc1 | -28% | -16%
COCCCN(C(=O)Cc1csc(-c2cccc(Cl)c2)n1)c1c(N)n(Cc2ccccc2)c(=O)[nH]c1=O | -21% | -25%

The list goes on:
Values run as follows: Vaccinia mCherry	Vaccinia Venus
Clc1ccc2ncnc(NCc3ccc4c(c3)OCO4)c2c1
 : -14%[60.7 µM]	-7%[60.7 µM]
CC(C)C(=O)NC(=S)Nc1ccccc1C(F)(F)F
 : -11%	-9%
COc1cc(OC)cc(C(=O)Nc2cccc3c2CCCC3)c1
 : i	-10%
CC(=O)Nc1ccc(S(=O)(=O)NCC(=O)OCc2cc(=O)oc3ccc4ccccc4c23)cc1
 : 2%	6%
CC(=O)OC[C@]1(OC(C)=O)C[C@@]23CC[C@H]4[C@@](C)(CCC[C@@]4(C)C(=O)O)[C@@H]2CC[C@@H]1C3
 : -9%	8%
C=CCN1C(=O)C2(C(C(=O)c3ccc(C)o3)=C(O)C(=O)N2CCCN2CCOCC2)c2ccccc21 (stereo not given)
 : ·	-7%
Cc1ccc(CN(C(=O)Cn2nnc3ccccc32)C(C(=O)NCc2ccco2)c2cccs2)cc1 (stereo not given)
 : ·	-21%
c1ccc(-c2csc(Nc3ccccn3)n2)cc1
 : ?	-12%
Cc1[nH]c2ccc(C(=O)OC(C)C(=O)N(C)C3CCCCC3)cc2c1C (stereo not given)
 : -27%	-28%
O=C(c1cc2ccccc2o1)N1CCN=C1SCc1cccnc1
 : -7%	-27%
CSCc1c(C(=O)NCCc2ccccn2)oc2ccccc12
 : 11%	-9%
CCC(C)Sc1nc(O)cc(=O)[nH]1 (stereo not given)
 : -10%	-9%
CC(C)C[C@H](N)c1nnc(SCc2ccc(Cl)cc2)o1
 : -9%[7.34 µM]	-13%[7.34 µM]
Cn1c(N)c(C(=O)COC(=O)c2ccccc2C(F)(F)F)c(=O)n(C)c1=O
 : 0%	-7%
O=C(Nc1nccs1)c1cn(-c2ccccc2)nc1-c1ccncc1
 : -7%	-2%
Cc1ccc(NC(=O)Cn2ccn(Cc3ccc(Cl)cc3)c(=O)c2=O)cc1C
 : -6%	-3%
O=C(COC(=O)c1ccco1)Nc1ccc(Br)cc1
 : -6%	-6%
Cc1ccc(NC(=O)CS(=O)CC(=O)N(C(C)C(=O)NC2CCCCC2)C(C)(C)C)cc1 (stereo not given)
 : -8%	-7%
COc1ccc(N2CCN(S(=O)(=O)c3c(C)[nH]c(C)c3C(=O)N3CCCC3)CC2)cc1
 : -30%	-19%
COc1cc2c(C(=O)N3CCN(c4ccc(F)cc4)CC3)cn(CC(C)C)c(=O)c2cc1OC
 : -6%	-6%
Cc1ccc(CNC(=O)CCc2c(C)[nH]c(=O)c(C#N)c2C)cc1
 : i	-2%
COc1cc2nc(N(C)C)c(CNCc3nonc3C)cc2c(OC)c1OC
 : -5%	7%
O=C(COC(=O)c1cc(-c2cccs2)nc2ccccc12)NCc1ccco1
 : -9%	1%
Cc1nc2ccn(Cc3ccco3)c(=O)c2cc1C(=O)NCc1ccccc1
 : -5%	-7%
CCn1ccnc1CNC(=O)c1ccc2oc(C(C)C)nc2c1
 : -12%	1%
CCCCOc1ccc(C(=O)N2CCCC2C(=O)O)cc1 (stereo not given)
 : ·	0%
Cc1oc(-c2ccc(C(=O)Nc3cccc(C(F)(F)F)c3)cc2)nc1CSc1ccccc1
 : ?	?
COCc1cc(=O)n2[nH]c(-c3ccco3)cc2n1
 : i	0%
Cc1ccc(S(=O)(=O)N(CC(=O)NCc2ccccn2)c2ccc(Cl)cc2)cc1
 : i	-7%
CCOc1ccccc1CSc1nc2ccccc2[nH]1
 : -20%	-17%
CCc1c(C)sc(NC(=O)c2cc(CC(C)C)on2)c1C#N
 : -14%	-15%
CCOCCCNC(=O)c1cnc2sc(N3CCCCC3)nn2c1=O
 : 11%	-6%
CC1(c2cccc(Br)c2)NC(=O)N(CC(=O)NCCC2=CCCCC2)C1=O (stereo not given)
 : -13%	-22%
Cc1cc(C)nc(NS(=O)(=O)c2ccc(NC(=O)CN3C(=O)C4CC=CCC4C3=O)cc2)n1 (stereo not given)
 : -4%	-12%
COc1ccc(N(C)C(=O)Cc2c(C(=O)O)[nH]c3ccccc23)cc1
 : -5%	-15%
Cc1sc2ncnc(N3CCC(C(=O)NCC(=O)Nc4ccc(F)c(F)c4)CC3)c2c1C
 : ?	?
CCCCn1c(N)c(N(CCC(C)C)C(=O)C2=COCCO2)c(=O)[nH]c1=O
 : i	-6%
O=S(=O)(c1cnc[nH]1)N1CCc2ccccc21
 : -2%	-13%
Cc1cc(C)n2c(SCC(=O)Nc3c(C)n(C)n(-c4ccccc4)c3=O)nnc2n1
 : ·	-13%
CC1CCCC(N2C(=O)NC(NC(=O)c3ccco3)(C(F)(F)F)C2=O)C1C (stereo not given)
 : -24%	-21%
CCOCCOC(=O)C1=C(C)N(C)C(=O)NC1c1ccccc1Cl (stereo not given)
 : ·	-12%
COc1ccc(S(=O)(=O)N(CCc2ccccc2)CC(=O)Nc2cc(Cl)ccc2C)cc1
 : -20%	-2%
CN(CC(=O)Nc1ccc(F)cc1)C(=O)COC(=O)CN1C(=O)NC2(CCCC2)C1=O
 : -8%	-12%
CC(OC(=O)c1ccc([N+](=O)[O-])o1)C(=O)Nc1nc(-c2ccc(F)c(F)c2)cs1 (stereo not given)
 : -15%	-14%
CCCCNS(=O)(=O)c1ccc(S(=O)(=O)N2CCC3(CC2)OCCO3)cc1
 : -15%	-13%
Fc1cccc(CCN2C(=S)NC[C@@H]2Cc2ccccc2)c1
 : -9%	-12%
Cn1cccc1Cc1nnc(SCC(=O)Nc2ccc(Cl)cc2)n1-c1ccc(F)cc1
 : -12%	-16%
COc1ccccc1N1CCN(C(=O)c2ccccc2SCC(=O)N2CCCC2)CC1
 : -2%	-24%
COc1cc(/C=C/C(=O)OCC(=O)N2CC3(C)CC2CC(C)(C)C3)ccc1O (stereo not given)
 : i	-23%
O=C(CN1CCc2ccccc2C1)Nc1cc(S(=O)(=O)N2CCOCC2)ccc1N1CCCC1
 : i	-10%
Cc1ccc(OCC(=O)NCc2ccco2)c([N+](=O)[O-])n1
 : -2%	-15%
C1CNCCN1
 : i	?

Sorted by count of non-hydrogen atoms (highest first): 3 of the compounds above.
Values run as follows: Vaccinia mCherry	Vaccinia Venus
COc1ccccc1N1CCN(C(=O)c2ccccc2SCC(=O)N2CCCC2)CC1
 : -2%	-24%
CCCCn1c(N)c(N(CCC(C)C)C(=O)C2=COCCO2)c(=O)[nH]c1=O
 : i	-6%
Cc1ccc(OCC(=O)NCc2ccco2)c([N+](=O)[O-])n1
 : -2%	-15%
